MT1-MMP promoter = inhibitors of MT1-MMP promoter transcription, cell-based, luciferase reporter, luminescence (AID 618); MT1-MMP promoter luciferase reporter cells, luminescence; calls from a first round at 10 µM; hits with a dose series show EC50 in µM; 87,000 tested, 0.62% active;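 active means over half of the reporter light lost at 10 µM or EC50 under 50 µM; inactive means the rest and hits that failed the dose series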;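 further: actives suppress MT1-MMP promoter-driven transcription so potencies describe inhibitors; HT1080 fibrosarcoma cells; overnight exposure; toxic or luciferase-blocking compounds were not removed from the actives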
Hsc70 = Hsc70 inhibitors, probe displacement, primary screen, biochemical, fluorescence polarization (AID 568); Heat shock cognate 71 kDa protein (Homo sapiens); Hsc70 fluorescence polarization, probe displacement; higher % means a stronger effect; strong numbers were not always called active; one-dose displacement, % at 20 µM; IC50 in µM for titrated hits; 83,000 tested, under 10 active;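 active means displacement above 50% without optical interference and an IC50 on retest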;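 further: ATPase domain with a fluorescein-tagged ATP probe; 0% = vehicle and 100% = excess ADP; read after one hour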
WNV protease inh = inhibitors of WNV NS2B-NS3 protease, primary screen, biochemical, fluorogenic substrate; z-score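 (tested at a level between 10 and 100 µM)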; fluorogenic substrate Ex360/Em465; active compounds read low; 65,000 tested, 0.18% active; Genome polyprotein (West Nile virus), P06935;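 active means z-score at -3 or under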;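 further: score is relative to mean and spread of the compound wells of a plate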
Target sequence (P06935 1371-1501 limits assumed): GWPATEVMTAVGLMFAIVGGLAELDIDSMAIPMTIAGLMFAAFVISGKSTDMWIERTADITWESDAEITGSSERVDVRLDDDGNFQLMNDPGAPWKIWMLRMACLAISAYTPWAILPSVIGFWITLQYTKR
Target sequence (P06935 1502-1679 limits assumed): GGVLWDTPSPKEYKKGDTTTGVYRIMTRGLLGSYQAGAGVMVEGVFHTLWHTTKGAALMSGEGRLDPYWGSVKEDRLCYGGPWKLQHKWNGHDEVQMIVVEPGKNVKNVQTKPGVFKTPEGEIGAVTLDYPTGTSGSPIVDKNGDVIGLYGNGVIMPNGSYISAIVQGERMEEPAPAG
* = called active by the depositor; i = inactive; nt = not tested or not shown; & = joins results of further samples. Only part of the results is shown; count on the stated rates, not on these rows.

SMILES	MT1-MMP promoter	Hsc70	WNV protease inh
Cc1ccc(-n2ncc(C#N)c2/N=C/N(C)C)cc1	i	9.2%	-0.17
CCOC(=O)C1C(C)N=C2SCC(=O)N2C1c1cccc(Br)c1 (stereo not given)	i	2.9%	0.36
Cc1cc2cc(C(c3nnnn3Cc3ccco3)N3CCCCC3)c(=O)[nH]c2cc1C (stereo not given)	i	1.3%	nt
Cc1nnc(SCc2ccc(C(=O)c3ccc(Cl)cc3)o2)n1-c1ccccc1	i	-1.2%	0.55
COc1ccc(C(CNC(=O)Cc2cc(OC)c(OC)c(OC)c2)N2CCCC2)cc1 (stereo not given)	i	3.9%	2.1
COc1ccccc1C(=O)NCc1ccncc1	i	4.9%	0.23
CCOc1ccc(-c2nc(C)sc2CC(=O)O)cc1	i	-0.2%	nt
CCC(=O)Nc1ccc(Cl)c(NC(=O)C(C)C)c1	i	7.3%	-0.98
CCOc1ccc(OCC)c(NC(=O)C2CCCN(S(=O)(=O)c3c(C)n[nH]c3C)C2)c1 (stereo not given)	i	5.6%	-0.66
CCSCCOC(=O)C1=C(C)NC(=O)NC1c1cccc(OC)c1OC (stereo not given)	i	6.2%	-0.61
Cc1cc(C)nc(N2CCC(C(=O)NCc3cccc(C(F)(F)F)c3)CC2)n1	i	4.7%	-0.48
COC(=O)[C@H](CCSC)NC(=O)NCCc1ccccc1F	i	-1.3%	nt
COc1ccc(OC)c(C2C3=C(CCCC3=O)Nc3c2c(=O)n(C)c(=O)n3C)c1 (stereo not given)	i	-4.2%	1.8
COc1cccc2cc(C(=O)C3=C(O)C(=O)N(CCN4CCOCC4)C3c3cccs3)oc12 (stereo not given)	i	-10%	0.24
O=c1c2ccccc2n2nnnc2n1-c1ccccc1	i	-9.4%	0.49
O=C(NCc1ccc(F)cc1)N[C@@H](Cc1ccccc1)C(=O)O	i	-11%	1.9
CC(C)c1ccc(C(=O)N2CCN(CCO)CC2)cc1	i	-0.1%	1.4
CC1CN(C(=O)c2cc(S(=O)(=O)N3CCCC3)c(Cl)cc2Cl)CC(C)O1 (stereo not given)	i	-3.3%	0.39
CN(CP(=O)(O)C(O)c1ccccc1)S(C)(=O)=O (stereo not given)	i	-1.4%	0.82
O=C(CSc1nc(N2CCCCC2)nc(N2CCCCC2)n1)N1CCN(c2ccccc2)CC1	i	2.8%	-0.9

Filtered by structure, the compounds so far with a COOH group (two)
SMILES	MT1-MMP promoter	Hsc70	WNV protease inh
CCOc1ccc(-c2nc(C)sc2CC(=O)O)cc1	i	-0.2%	nt
O=C(NCc1ccc(F)cc1)N[C@@H](Cc1ccccc1)C(=O)O	i	-11%	1.9

Other entries follow.
SMILES	MT1-MMP promoter	Hsc70	WNV protease inh
CCOC(=O)N1CCN(C(=O)c2cn(CC(C)C)c(=O)c3c2c2ccccc2n3C)CC1	i	2.6%	-0.16
O=C(CN1CCC(C(=O)c2ccc(Cl)cc2)CC1)Nc1ccc2c(c1)OCCO2	i	-5.6%	0.47
CCCCc1cc(=O)oc2c(CN(C)C)c(O)ccc12	i	6.6%	8.7
C=CCSc1nc(-c2ccccc2)c(C#N)c(=O)[nH]1	i	3.1%	nt
O=C(c1ccco1)N1CCN(C(c2cccs2)c2nnnn2C2CCCC2)CC1 (stereo not given)	i	4.4%	nt
CCOC(=O)C1=C(C)NC(=O)NC1c1cc(Br)c(O)c(OC)c1 (stereo not given)	i	2.2%	-0.7&-0.99
Cc1ccc(S(=O)(=O)c2nc(-c3ccccc3)oc2NCc2cccnc2)cc1	i	2.8%	-0.74
CCOC(=O)c1csc(NC(=O)C2CCCCC2)n1	i	-2.3%	-0.37
Cc1nc2c(-c3ccccc3)c(C)[nH]n2c(=O)c1Cl	i	2.5%	1.3
O=C(c1nn2c(C(F)(F)F)cc(-c3ccc(F)cc3)nc2c1Cl)N1CCOCC1	i	-3.5%	0.55
Cc1oc(C(=O)O)cc1COc1ccc2c(C)cc(=O)oc2c1	i	5.7%	0.08
O=C(O)CSCC(=O)Nc1cccc2ccccc12	i	-6.2%	0.02
Cc1cc(C(F)(F)F)c2c(N)c(C(=O)Nc3cc(C)on3)sc2n1	i	8.6%	0.58
O=S(=O)(c1ccccc1)N(C1=NCCS1)S(=O)(=O)c1ccccc1	i	0.4%	-1.2
CCN(CC)S(=O)(=O)c1cccc(-c2nnc(SCc3nnc(-c4cccs4)o3)n2N)c1	i	-8.7%	-0.7
Cn1c(SCC(=O)NCc2ccccc2)nnc1-c1ccc(NC(=O)CCc2ccccc2)cc1	i	1.6%	nt
Cn1c(=S)[nH]c2ccccc21	i	-2.2%	nt
Cc1ccc(-n2cnc3c(sc4nccc(N(C)C)c43)c2=O)cc1	i	6.4%	1.3
O=C(CCCN1C(=O)c2ccccc2C1=O)NC1=NCCS1	i	-0.9%	-0.61
CCCCC(=O)Nc1cccc(NC(=O)c2ccc3c(c2)OCO3)c1	i	-0.9%	0.32
C(=N\n1cnnc1)/c1ccc2c(c1)OCO2	i	-3.3%	0.38
Cc1c(C(=O)NCc2cccnc2)sc2ncn(CC(=O)N3CCCCC3C)c(=O)c12 (stereo not given)	i	0.8%	-0.43
Cc1ccc(C(=O)N2CCOCC2)cc1S(=O)(=O)Nc1cccc(C)c1C	i	-0.9%	0.32
CCOCCCNS(=O)(=O)c1ccc(-n2cnnn2)c(OC)c1	i	1.6%	nt
Cc1ccc2[nH]c(-c3cccc(N)c3)cc2c1	i	-4.8%	0.77
CCn1c(SCC(=O)N2CCC(C(N)=O)(N3CCCCC3)CC2)nnc1-c1ccccc1	i	-2.7%	-0.65
O=C1CC(Nc2ccc(N3CCOCC3)cc2)C(=O)N1C1CCCCC1 (stereo not given)	i	-5.3%	-1.1
COc1ccccc1-n1c(=O)[nH]c2c(C(N)=O)nc(C3CCCCC3)nc21	i	-0.3%	-0.05
Cc1ccccc1N(C(=O)CCC(=O)Nc1ccccn1)C(C(=O)NC(C)C)c1ccc(O)cc1 (stereo not given)	i	2.1%	1
c1ccc(-n2nnnc2SCc2cccc3nsnc23)cc1	i	-5.6%	0.91
CCCCC(=O)Nc1ccc(NC(=O)c2cc(OC)c(OC)c(OC)c2)cn1	i	3.7%	-0.39
CCOc1ccc(-n2c(=O)[nH]cc(C(=O)N3CCCc4ccccc43)c2=O)cc1	i	4.5%	-0.27
COc1ccc(Cn2c(C3CC3)nc3ccc(NC(=O)C4CC4)cc3c2=O)cc1	i	-15%	1.6
CN1CCN(c2nc(NCCOC34CC5CC(CC(C5)C3)C4)nc(OCC(F)(F)F)n2)CC1	i	-2.7%	0.12
COc1ccc(N2CCC(CNC(=O)Nc3ccc(C)c(C)c3)C2)cc1 (stereo not given)	i	0.7%	-0.91
COc1cc(OC)c(C2C(C(=O)O)c3ccccc3C(=O)N2C)cc1OC (stereo not given)	i	-5.7%	-0.11
CCCCSc1nc2c(=O)[nH][nH]c(=O)c2n1Cc1ccccc1	i	0.7%	nt
CCOC(=O)N1CCN(S(=O)(=O)c2ccc(C)cc2)C1c1ccc(OC)cc1 (stereo not given)	i	-6.3%	1.8
Cc1cc(C)cc(N(CC(=O)NC2CC3CCC2C3)S(C)(=O)=O)c1 (stereo not given)	i	5.8%	-0.54
C=C(C)CN(CC)c1nc(N)c(C#N)c(CC#N)c1C#N	i	6.1%	0.24
COc1ccc(CN(C(=O)c2ccco2)C2CC(C)N(C)CC2C)cc1 (stereo not given)	i	-6.6%	-0.36
COCc1nnc(NC(=O)c2cc(Cl)ccc2OC)s1	i	1.1%	0.2
CC(C)c1nnc(NC(=O)CCC(=O)NC2CCCCCCC2)s1	i	-2.1%	nt
CC(C)N(C(=O)COC(=O)c1ccc(O)cc1)C(C)C	i	3.1%	0.09
COc1ccc(OC)c(S(=O)(=O)Nc2cc(Cl)cc(Cl)c2)c1	i	-4.2%	-0.61
O=C(CCSc1nnc(-c2ccco2)o1)Nc1ccccc1	i	-2.5%	-0.67
CCC(Sc1nc(N)cc(=O)[nH]1)C(=O)NC(C(=O)OC)c1ccccc1 (stereo not given)	i	-0.8%	0.87
CCN(Cc1ccccc1)C(c1cc2ccc(C)cc2[nH]c1=O)c1nnnn1CCOC (stereo not given)	i	5.9%	nt
Cc1ccc(OCc2nc(C#N)c(N3CCN(Cc4ccccc4)CC3)o2)cc1	i	-4.1%	0.27
COC(=O)c1cc(NCc2ccc3c(c2)OCO3)ccc1N1CCOCC1	i	-6.9%	0.9
O=C(NC1CCN(Cc2ccccc2)CC1)c1cc(-c2ccccn2)nc2ccccc12	i	-0.3%	nt
O=C(Nc1ccccn1)c1ccc(NC(=O)c2ccco2)cc1	i	-0.3%	-1.1
CCSc1nnc(NC(=O)C2Cc3ccccc3CN2C(=O)c2ccco2)s1 (stereo not given)	i	-8.1%	-0.07
O=C(Nc1ccc(-c2nc3cccnc3s2)cc1)c1ccco1	i	-1.3%	1.5
CC1(C)Cc2c(C#N)c(N)sc(=S)c2CO1	i	5.2%	0.14
Cc1ccc(C)c(-n2nnnc2SCC(=O)c2ccc3c(c2)NC(=O)CO3)c1	i	0.8%	0.66
NC1(N)OC(CN2C(=O)c3ccccc3C2=O)CS1 (stereo not given)	i	-2.3%	1.2
O=C1CSc2nc3ccccc3n21	i	-8.0%	nt
CC(SC1CCCC1)C(=O)Nc1ccnn1C(C)C (stereo not given)	i	9.9%	-0.66
COc1ccc(N(C(=O)c2ccco2)S(=O)(=O)c2ccc(F)cc2)cc1	i	2.1%	nt

Single entries from above.
`NC1(N)OC(CN2C(=O)c3ccccc3C2=O)CS1` (stereo not given) – WNV protease inh = 1.2
`CC1(C)Cc2c(C#N)c(N)sc(=S)c2CO1` – WNV protease inh = 0.14
`CCC(Sc1nc(N)cc(=O)[nH]1)C(=O)NC(C(=O)OC)c1ccccc1` (stereo not given) – WNV protease inh = 0.87

Complete entries as entered above. Order of values: MT1-MMP promoter	Hsc70	WNV protease inh
O=C(NC1CCN(Cc2ccccc2)CC1)c1cc(-c2ccccn2)nc2ccccc12 in the list: i	-0.3%	nt
CC(SC1CCCC1)C(=O)Nc1ccnn1C(C)C (stereo not given) in the list: i	9.9%	-0.66

Remaining list, next part:
SMILES	MT1-MMP promoter	Hsc70	WNV protease inh
Cc1ccccc1CNC(=O)Nc1cccs1	i	0.8%	0.26
CN(C(=S)NC1=CCS(=O)(=O)C1)C1CCCCC1	i	3.5%	nt
Cc1ccc(/C(COc2ccccc2O)=N\O)cc1	i	-0.5%	-1.7
CCOc1ccc(Cl)cc1S(=O)(=O)N1CCCC1	i	2.5%	-0.4
Cc1ccc(Cl)cc1-n1c(=O)cc(N2CC(C)OC(C)C2)[nH]c1=O (stereo not given)	i	7.8%	-1.2
COc1cc(CN(C)CCc2ccccn2)cc(OC)c1OC	i	0.2%	0.91
Brc1ccccc1-c1nnc(COc2cccc3cccnc23)o1	i	0.7%	nt
Cc1nc(C)c(C(=O)C2=C(O)C(=O)N(CCN3CCOCC3)C2c2cccnc2)s1 (stereo not given)	i	-0.1%	-0.62
Cc1cc(C)n(-c2cc(=O)n(C)c(=O)n2C)n1	i	4.7%	0.55
COc1ccc(OC)c(-c2oc3ccccc3c(=O)c2O)c1	i	-3.0%	-1.8
COc1ccc2c(c1)Cc1sc(NC(C)=O)nc1-2	i	-6.8%	0.47
O=C(N1CCCCC1)N1CCN(c2ccc(Cl)cc2)CC1	i	6.2%	-0.5
CCC(C)(C)n1nnnc1C(c1ccc2ncccc2c1)N1CCN2CCCC2C1 (stereo not given)	i	0.0%	-0.44
COc1ccc(CCNC(=O)CN2CCN(S(=O)(=O)c3ccc(Cl)cc3)CC2)cc1OC	i	2.5%	nt
CCOc1cccc(CN2CCN(c3cccc(C(F)(F)F)c3)CC2)c1O	i	-0.9%	0.86
COc1ccc(CNc2oc(Cc3cccc4ccccc34)nc2C#N)cc1	i	3.3%	-1
COCc1cc(=O)[nH]c(Nc2nc(C)c3cc(OC)ccc3n2)n1	i	5.0%	nt
NC(=O)c1c(NC(=O)c2cc3ccccc3o2)sc2c1CCC2	6.5µM*	-4.7%	-1.1
CCC(Oc1ccccc1)C(=O)N1CCN(c2ccccn2)CC1 (stereo not given)	i	-6.0%	0.69
Cc1oc2c(CN3CCCC3)c(O)ccc2c(=O)c1-c1ccc(Cl)cc1	i	-0.3%	1.2

Reprinted at random: 2 records from the list.
SMILES	MT1-MMP promoter	Hsc70	WNV protease inh
Cc1cc(C)n(-c2cc(=O)n(C)c(=O)n2C)n1	i	4.7%	0.55
CCC(Oc1ccccc1)C(=O)N1CCN(c2ccccn2)CC1 (stereo not given)	i	-6.0%	0.69

Further records:
SMILES	MT1-MMP promoter	Hsc70	WNV protease inh
COc1ccc(C2C(C#N)=C(C)NC3=C2C(=O)CC(C)(C)C3)c(OC)c1 (stereo not given)	i	1.9%	-0.51
CCOC(=O)CCc1c(C)c2ccc(OCc3nn[nH]n3)c(C)c2oc1=O	i	4.3%	-0.09
Cc1ccccc1NC(=O)c1cccc(OCc2c(C)noc2C)c1	i	-0.5%	nt
COc1cccc(C(=O)NCc2nnc(SCC(=O)Nc3nccs3)n2-c2ccccc2)c1	i	5.2%	-0.46
C#CCN1CC(C)/C(=N/O)CC1C (stereo not given)	i	-8.9%	0.95
Cc1ccc(C(=O)NC(C)c2ccccc2)o1 (stereo not given)	i	-4.2%	nt
COc1ccccc1C(=O)N1CCCC(c2nc(-c3cc(OC)c(OC)c(OC)c3)no2)C1 (stereo not given)	i	4.1%	-0.12

Compound activity from PubChem.
